miR-21 reporter: qHTS Assay for Modulators of miRNAs and/orActivators of miR-21. HeLa miR-21 FLuc reporter, luciferase, 48 h. AID 2288, 2010. Potency, µM (doses to about 38.3 µM), for the others: at the top dose reporter change, positive = more light. 340,000 tested, under 10 active; active = well fitted rising curve with a large enough effect; inconclusive = small, poorly fitted or top-dose-only effect; inactive = no such curve, though single readings can be large or run the other way;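 also: % of control where 0% means no effect; miR-21 action dims this reporter so a rising signal means less miR-21 action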
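HeLa cells endogenously expressing miR-21, stably carrying CMV-driven firefly luciferase with a downstream miR-21 binding site, 2000 cells/well. Titrations up to approximately 40 uM, 48 hours; luciferase luminescence read.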
Rango complex inh: qHTS Assay for Inhibitors of Rango (Ran-regulated importin-beta cargo) - Importin beta complex formation; Importin subunit beta-1 (Homo sapiens), Q14974; Rango CFP/YFP FRET sensor + importin beta, 45 min; Potency, µM (titrated, usually from 92.2 µM), for the others: top-dose inhibition of complex formation; hit rate 0.031% among 340,000; AID 540263, 2011; active = rising FRET ratio curve, often small or poorly fitted; inconclusive = mostly compound fluorescence or quenching in the first reads; inactive = flat curves in all reads;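 also: potency is read from the fitted curve at half-maximal effect; 0% = DMSO wells and 100% = buffer wells lacking importin beta; nearly all actives have a fitted effect of over 15% in size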
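Inhibition scored from the CFP 486 nm/YFP 530 nm FRET ratio 45 min after adding 0.125 microM importin beta to 50 nM Rango biosensor preincubated 5 min with compound (room temperature, PBS with DTT, Tween-20, BSA). No-importin wells as positive control.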
GLA inh pH 4.5: qHTS Assay for Inhibitors of Human alpha-Galactosidase at pH 4.5 | 230,000 tested, under 10 active | AID 1467, 2008 | Alpha-galactosidase A (Homo sapiens), P06280 | activity change, negative = inhibition, % at 105 µM | purified enzyme, 4-MU-alpha-Gal fluorescence, pH 4.5; inconclusive = small, poorly fitted or top-dose-only inhibition, or a rising curve; inactive = flat fitted curve, though single readings scatter; no compound was filed as active;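 also: 0% = full activity with enzyme and -100% = basal without enzyme; dose as in the result columns while the protocol names 77 µM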
Target sequence (P06280 whole entry, looked up): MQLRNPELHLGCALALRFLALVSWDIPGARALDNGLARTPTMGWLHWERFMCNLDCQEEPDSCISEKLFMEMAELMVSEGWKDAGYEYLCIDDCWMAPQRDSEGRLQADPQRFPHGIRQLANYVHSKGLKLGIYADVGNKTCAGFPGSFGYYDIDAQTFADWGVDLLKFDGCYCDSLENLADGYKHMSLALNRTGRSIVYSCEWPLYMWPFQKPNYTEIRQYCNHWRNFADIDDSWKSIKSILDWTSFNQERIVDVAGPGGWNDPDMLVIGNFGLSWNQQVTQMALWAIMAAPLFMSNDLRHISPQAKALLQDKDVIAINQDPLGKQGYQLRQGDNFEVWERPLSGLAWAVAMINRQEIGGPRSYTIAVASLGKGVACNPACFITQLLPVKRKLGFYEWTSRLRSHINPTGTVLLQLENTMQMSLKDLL
Rango dissoc inh: qHTS Assay for Inhibitors of RanGTP induced Rango (Ran-regulated importin-beta cargo) - Importin beta complex dissociation. Snurportin-1 (Homo sapiens) + GTP-binding nuclear protein Ran (Homo sapiens) + Importin …. Biochemical FRET Rango-importin beta, RanGTP-induced dissociation. Potency, µM (titrated, usually from 46.1 µM), inactives show at the top dose activity change, negative = inhibition. hit rate 0.071% among 340,000. AID 540253, 2011; active means falling FRET ratio curve, often poorly fitted, with flat reads before Ran was added; inconclusive means other falling curves, or compound fluorescence or quenching; inactive means flat or rising ratio curve;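 also: potency is read from the fitted curve at half-maximal effect; % of control where 0% means no effect; nearly all actives have a fitted effect of over 45% in size; -100% = wells without RanGTP and RCC1; the record marks most hits as doubtful in a second field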
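Two FRET readings bracket the reaction: one 5 min after compound meets Rango–importin beta, another 45 min after RanGTP-RCC1 (0.6 uM Ran, 0.2 uM RCC1, 2 mM GTP) is added. Only the second defines inhibition.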
An asterisk follows results filed as active; ? = inconclusive; · = no result given; & = joins results of further samples; [ ] = remark or other dose. Not all compounds are listed. The share of hits here may be higher or lower than overall.

miR-21 reporter | Rango complex inh | SMILES | GLA inh pH 4.5 | Rango dissoc inh
-3% | ? | C=CCn1c(=O)/c(=C/c2ccc(C)o2)s/c1=C(/C#N)C(=O)c1ccccc1 | -2 | ?
-33% | 4.2% | C=CCNC(=O)C1CC(=O)N(c2ccc(OCC(=O)Nc3ccccc3)cc2)C1 (stereo unspecified) | -2 | 1%
2% | 1.4% | O=C(Cn1cnc2ccccc21)Nc1ccccc1-c1ccccc1 | · | 1%
0% | ? | CCOC(=O)c1c[nH]c2nc(C)ccc2c1=O | 6[21.1 µM] | ?
-1% | -0.4% | CN(C)c1ccc(P(=O)(COc2ccc([N+](=O)[O-])cc2)c2ccc(N(C)C)cc2)cc1 | -24 | -5%
-13% | 0.1% | c1cncc(-c2csc(-c3cccnc3)n2)c1 | · | 16%
-3% | 0.1% | CN(C)C(=O)c1ccc(Cl)cc1[N+](=O)[O-] | 7 | 3%
-5% | 0.9% | O=C(CSc1nc2ccccc2c(=O)n1CCCC(=O)N1CCCC1)NCc1ccco1 | 5 | 1%
-32% | 0.6% | CCn1ncc(Br)c1C(=O)Nc1ncc(C)s1 | -3 | -3%
-4% | -2.0% | CC(C)n1c(SCC(=O)NCc2ccco2)nnc1C1CC1 | · | -12%
-5% | 1.2% | CSc1cccc(NC(=S)N2CCC(N(C)C(C)C)CC2)c1 | -11 | -2%
· | -1.1% | Cc1ccc(NC(=O)CC(C)c2ccccc2)cc1S(=O)(=O)N1CCOCC1 (stereo unspecified) | · | 2%
-1% | -0.8% | COc1ccc(NS(=O)(=O)Cc2ccccc2Cl)cn1 | -1 | -1%
-2% | 4.5% | COC(=O)[C@H](CCSC)NC(=O)Nc1ccc(OC)cc1OC | 7 | -13%
-4% | -3.3% | COCc1cc(C)nc(NC2CCCCC2)c1C#N | 17 | 18%
· | ? | CN(c1ccccc1)S(=O)(=O)c1cccc(C(=O)NNC(=O)c2ccncc2)c1 | · | 11%
· | -1.2% | COc1ccc(NC(=O)CN(C)C(=O)c2cc(CN3C(=O)c4ccccc4C3=O)ccc2OC)cc1 | · | 15%
-1% | 4.0% | CC(C)c1ccc(NC(=O)C(c2ccccc2)N(C)C(=O)c2cnccn2)cc1 (stereo unspecified) | -1 | 19%
-54% | ? | O=C(O)c1ccc2nc(-c3ccccc3)c(-c3ccccc3)nc2c1 | 10 | 2%
1% | -0.4% | O=C(c1c(F)cccc1F)N1CCCc2ccccc21 | · | -7%
-25% | -2.3% | O=C1N=C(N2CCOCC2)S/C1=C/c1cccs1 | -3 | -8%
5% | 0.4% | Oc1ccc(O)c(Cc2nc3ccccc3s2)c1 | -11 | -9%
-4% | -0.2% | CON1C(=O)C(=O)N(OC)C2CCCCC21 (stereo unspecified) | 5 | 3%
-1% | -3.8% | CCCN(CC(=O)Nc1ccc(C(N)=O)cc1)CC(=O)Nc1ccc(F)c(F)c1F | · | 0%
0% | -0.9% | O=C(C1CCN(S(=O)(=O)c2cccs2)CC1)N(c1ccccn1)C1CCCCC1 | 6 | -11%
-3% | -5.1% | Cc1cc(C(=O)OCC(=O)c2ccc(Br)s2)no1 | -4 | -14%
-12% | -2.4% | CCOc1ccc(C(=O)NCc2ccncc2)cc1OCC | 4 | 3%
3% | -1.6% | CS(=O)(=O)N(CC(=O)NCCC1=CCCCC1)C1CCCCC1 | -3 | 24%
-19% | -2.3% | Clc1nnc(NN=C2CCCC2)c2ccccc12 | 5 | -1%
-6% | -2.6% | CC1(C(=O)NC2CCCC2)CCC(=O)N1Cc1ccccc1 (stereo unspecified) | 1 | -16%
-3% | 3.2% | C=CCS(=O)(=O)c1cccc2cccnc12 | 3 | 0%
-7% | 0.9% | O=C(O)CCn1cnc2ccccc2c1=O | · | 18%
-12% | 0.0% | Cc1ccc(-c2csc3nnc(SCC(=O)N4CCN(Cc5ccccc5)CC4)n23)cc1 | -11 | 5%
15% | -3.1% | Cc1ccc(C(=O)Nc2cccc(C(F)(F)F)c2)cc1Nc1ccccn1 | -6 | -7%
-21% | -0.8% | CC(C)NC(=O)NC(=O)CSc1ccccc1F | 4 | 21%
-23% | 8.5% | COc1ccc(C(=O)NC(=S)Nc2cccnc2)cc1OC | -2 | 25%
-2% | -0.3% | CCN(CC)S(=O)(=O)c1ccc2oc(C(=O)NC3CCCc4ccccc43)c(C)c2c1 (stereo unspecified) | 1 | -11%
-3% | 0.6% | O=C(Nc1ccc(NC(=O)c2cccs2)c(Cl)c1)c1ccco1 | -18 | 20%
-2% | -3.5% | O=C(Nc1ccc(N2CCN(Cc3ccccc3)CC2)cc1)c1ncn[nH]1 | 9 | 7%
· | -1.0% | CCN(C[C@H]1N[C@@](CC)(C(=O)OC)[C@H]2C(=O)N(C)C(=O)[C@@H]12)C(=O)Nc1ccc(C)cc1 | · | -5%
-1% | 0.0% | COc1ccccc1N(CC(O)CN1CCCCC1)S(=O)(=O)c1ccc(C)cc1 (stereo unspecified) | · | 33%
-1% | -3.1% | O=C(O)C1C(c2ccccc2)C(C(=O)OCc2ccco2)C1c1ccccc1 (stereo unspecified) | -8 | 1%
-1% | -0.5% | Cc1ccccc1NC(=O)CSCc1cc(=O)n2ccsc2n1 | · | -1%
? | -7.3% | CCCC(=O)OCCNc1cc(Sc2nc3ccccc3[nH]2)c2nonc2c1[N+](=O)[O-] | -6 | ?
-16% | -1.6% | Cc1ccc(OCc2ccc(C(=O)O)o2)c([N+](=O)[O-])c1 | -1 | 1%
-43% | -1.2% | Cc1ccc(/C=C/C(=O)N2CCCC(C)C2)cc1 (stereo unspecified) | 3 | 0%
0% | 0.0% | CCOC(=O)Cc1cc(=O)c2cc(C)ccc2[nH]1 | 1 | 10%
· | 1.2% | O=C(COc1ccccc1Cl)N1N=C(c2cccs2)CC1c1ccco1 (stereo unspecified) | · | 2%
-5% | 3.8% | CCc1ccc(-c2n[nH]c(=O)c3ccccc23)cc1 | · | 0%
-1% | -0.2% | O=C(NCc1ccccn1)Nc1cc(Cl)cc(Cl)c1 | · | 5%

Part of the list above in a different format.
| SMILES | miR-21 reporter | Rango complex inh | GLA inh pH 4.5 | Rango dissoc inh |
| --- | --- | --- | --- | --- |
| COc1ccc(C(=O)NC(=S)Nc2cccnc2)cc1OC | -23% | 8.5% | -2 | 25% |
| CCCC(=O)OCCNc1cc(Sc2nc3ccccc3[nH]2)c2nonc2c1[N+](=O)[O-] | ? | -7.3% | -6 | ? |

Later entries.
miR-21 reporter | Rango complex inh | SMILES | GLA inh pH 4.5 | Rango dissoc inh
-2% | 2.4% | Cc1cc2ccccc2nc1SCC(=O)N1c2ccccc2CC1C (stereo unspecified) | -7 | -1%
-19% | 4.1% | Nc1nc2ccccc2nc1N1CCCC1 | -5 | 0%
-1% | -0.8% | CN1CCN(c2ccc(NC(=O)CN3CCOCC3)cc2F)CC1 | -1 | -8%
0% | -0.6% | CCC(C(=O)OC)n1cnc2c(nnn2-c2ccccc2)c1=O (stereo unspecified) | · | 12%
-3% | -3.3% | CCSc1nnc(Cn2c(=O)sc3ccccc32)n1-c1ccccc1C | 4 | 0%
-3%&-14% | 0.0% | CCCN(CCC)CCCNC(=O)c1cc2c(=O)[nH]c3ccccc3c2n1C | -2[21.1 µM] | -2%
-40% | 0.1% | CCC(=O)Nc1ccc2ccccc2c1 | 7 | 5%
0% | 0.6% | Cc1ccc(C(=O)OC(C)C(=O)NC2CCCCC2C)cc1S(=O)(=O)N1CCCCC1 (stereo unspecified) | · | 1%
-11% | ? | O=c1c2cc(N3CCOCC3)ccc2[nH]c(=S)n1CCCN1CCCCCC1 | 0 | -27%
-79% | 0.7% | NS(=O)(=O)c1ccc2nc(NC(=O)Nc3ccccc3F)sc2c1 | · | -5%
4% | -3.2% | COc1cccc(CC2(CO)CCCN(Cc3ccc(CO)o3)C2)c1 (stereo unspecified) | 2 | -21%
0% | -2.6% | Cc1ccccc1CN1C(=O)CSc2ccc(C(=O)N3CCOCC3)cc21 | -4 | -1%
-9% | -3.3% | CC(C)Oc1ccc(C(=O)NCCCNC(=O)c2ccccn2)cc1 | · | 11%
-5% | -5.3% | COc1ccc(/C=C/C(=O)NC(=S)Nc2cc([N+](=O)[O-])ccc2O)cc1OC | -9 | -7%
0% | 2.3% | O=C(CC1OC(=O)c2ccccc21)Nc1ccccc1N1CCOCC1 (stereo unspecified) | 5 | 1%
· | 0.7% | COc1ccc(S(=O)(=O)N2CCOCC2)cc1NC(=O)CSc1nnc(C2CC2)n1C | · | 12%
8% | 4.6% | CCCNc1nc2c(c(=O)n(C)c(=O)n2C)n1Cc1cccc(C)c1 | -7 | 1%
· | 3.7% | Cc1cc(NC(=O)COC(=O)CCNS(=O)(=O)c2ccccc2)n(-c2ccccc2)n1 | · | -12%
· | -2.9% | CCOC(=O)c1c(C)[nH]c(C(=O)OCC(=O)NCCc2ccc(OCC)c(OCC)c2)c1C | · | 15%
-2% | -1.1% | CCCCN(C(=O)CN1CC(C)OC(C)C1)c1c(N)n(CC(C)C)c(=O)[nH]c1=O (stereo unspecified) | 0 | 9%
-3% | 5.8% | COC(=O)c1ccc(C2/C(=C(\O)c3cccc(OC)c3)C(=O)C(=O)N2CCCN(C)C)cc1 (stereo unspecified) | -2 | 1%
0% | -2.5% | CCCCn1c(SCC2CCCO2)nc2cc(S(N)(=O)=O)ccc21 (stereo unspecified) | 2 | -5%
-3% | ? | COc1ccc(CCNC(=O)CCN2C(=O)C3CC=CCC3C2=O)cc1OC (stereo unspecified) | -1 | -2%
11% | -1.0% | CC(CC(=O)Nc1ccncc1)c1ccccc1 (stereo unspecified) | -3 | 0%
-1% | 8.1% | Cc1c(NC(=O)C(=O)/C=C(\O)c2ccc(Br)cc2)c(=O)n(-c2ccccc2)n1C | -9 | 8%

Full records from above.
Profile of `CC(CC(=O)Nc1ccncc1)c1ccccc1` (stereo unspecified) → miR-21 reporter = 11%; Rango complex inh = -1.0%; GLA inh pH 4.5 = -3; Rango dissoc inh = 0%
Profile of `Cc1ccccc1CN1C(=O)CSc2ccc(C(=O)N3CCOCC3)cc21` → miR-21 reporter = 0%; Rango complex inh = -2.6%; GLA inh pH 4.5 = -4; Rango dissoc inh = -1%
Profile of `COc1ccc(S(=O)(=O)N2CCOCC2)cc1NC(=O)CSc1nnc(C2CC2)n1C` → miR-21 reporter = ·; Rango complex inh = 0.7%; GLA inh pH 4.5 = ·; Rango dissoc inh = 12%

(listing goes on)
miR-21 reporter | Rango complex inh | SMILES | GLA inh pH 4.5 | Rango dissoc inh
· | ? | COc1cc(OC)c(OC)cc1/C=C/c1ccnc2ccccc12 | · | ?
0% | -1.8% | CC1CCCC(C)N1S(=O)(=O)c1ccc(S(=O)(=O)NCCc2ccncc2)cc1 (stereo unspecified) | -2 | -8%
-1% | 0.6% | COC(=O)c1ccc(Nc2nnc(-c3ccc(C)c(S(=O)(=O)NCC4CCCO4)c3)c3ccccc23)cc1 (stereo unspecified) | 0 | -19%
· | ? | COc1cc2sc3cc(NCc4ccc5c(c4)OCO5)ccc3c(=O)c2cc1OC | · | ?
-8% | 4.7% | CC(C)c1ccc(-c2c(NCCc3ccccc3)c(=O)c2=O)cc1 | · | -1%
-3% | 2.2% | COc1ccc(-c2cnc(N)nc2-c2ccc(OC)cc2)cc1 | · | 17%
-1% | -1.7% | CN(Cc1ccccc1)C(=O)c1cccnc1 | · | 18%
-1% | -0.5% | O=C(CSCc1ccc([N+](=O)[O-])cc1)N/N=C/c1cccnc1 | 1 | 5%
-8% | -1.3% | COc1cc(S(=O)(=O)N2CCCCCC2)ccc1-n1cnnn1 | 11 | -5%
-2% | -2.6% | CCCCn1c(N)c(N(CC(C)C)C(=O)c2cc(C)oc2C)c(=O)[nH]c1=O | · | -7%
